NOMO-1 viab = STK33 inhibitor candidate reducing NOMO-1 cell viability | NOMO-1 AML viability, CellTiter-Glo luminescence, 72 h | inhibition, % (test concentration not listed) | 37,000 tested, 7.5% active;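 active = most replicates above 80%; inconclusive = exactly half above 80%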;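 note: wells of about 30 µL received 25 nL stock; 0% = median of vehicle wells and 100% = reference inhibitor level; the first replicate is given; inactives centre near 10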
The depositor's hits bear a star; ? = inconclusive. These rows are one share of the data; the hit share may differ from the screen's.

SMILES	NOMO-1 viab
C[C@H](CO)N1C[C@H](C)[C@@H](CN(C)S(=O)(=O)c2cn(C)cn2)Oc2ccc(NC(=O)CCCCCC(=O)Nc3ccccc3N)cc2C1=O	30
Cc1noc(C)c1S(=O)(=O)N(C)C[C@H]1Oc2ccc(NC(=O)Cn3cnnn3)cc2CC(=O)N([C@@H](C)CO)C[C@H]1C	5
O=C(Cn1nnc2ccccc21)c1ccc([N+](=O)[O-])cc1	16
C[C@@H]1CN([C@@H](C)CO)C(=O)c2cc(NS(=O)(=O)c3cn(C)cn3)ccc2O[C@@H]1CN(C)CC1CC1	14
C[C@@H]1CN([C@H](C)CO)C(=O)c2cc(NC(=O)C3CCCCC3)ccc2O[C@H]1CN(C)C	17
O=C1CCC(=O)N1CNc1cc(C(F)(F)F)cc(C(F)(F)F)c1	31
Cc1cc(C)c(OCC(=O)Nc2cccc(NC(=O)c3ccco3)c2)c(Br)c1	22
C[C@@H]1CCCCO[C@@H](CN(C)C(=O)Nc2ccc(C(F)(F)F)cc2)[C@@H](C)CN([C@H](C)CO)C(=O)c2cc(NS(C)(=O)=O)ccc2O1	14
COc1c(C)cc(Br)cc1C(=O)NC(=S)Nc1sc2c(c1C(N)=O)CCCCC2	9
C[C@@H]1CN([C@@H](C)CO)C(=O)c2cc(NC(=O)CCN3CCOCC3)ccc2O[C@H]1CN(C)Cc1ccc(Cl)c(Cl)c1	6
CCCC1(O)Cc2c(C(C)=O)cc3cccc(O)c3c2O1 (stereo unspecified)	20
COc1ccc(CN(C)C[C@H]2Oc3ccc(NC(=O)Nc4ccccc4)cc3CC(=O)N([C@H](C)CO)C[C@H]2C)cc1	5
C[C@@H]1CN([C@@H](C)CO)C(=O)c2cccc(NS(=O)(=O)c3ccccc3)c2O[C@@H]1CN(C)Cc1ccc(Cl)c(Cl)c1	14
CCc1ccc2c(c1)=C(c1sc(Nc3cccc(Cl)c3C)nc1O)C(=O)N=2	49
COc1ccc(CN(C)C[C@H]2Oc3c(NS(=O)(=O)c4ccc(F)cc4)cccc3C(=O)N([C@@H](C)CO)C[C@@H]2C)cc1	3
CC(C)NC(=O)N(C)C[C@H]1Oc2c(NS(=O)(=O)c3ccc(Cl)cc3)cccc2C(=O)N([C@H](C)CO)C[C@@H]1C	12
C[C@@H]1CN([C@H](C)CO)C(=O)c2cccc(NS(=O)(=O)c3cn(C)cn3)c2O[C@@H]1CN(C)Cc1ccc(Cl)c(Cl)c1	14
Cc1noc(C)c1NC(=O)Nc1ccc2c(c1)C(=O)N([C@H](C)CO)C[C@H](C)[C@@H](CN(C)Cc1ccccc1)O2	8
C[C@@H]1CN([C@H](C)CO)C(=O)c2cccc(NC(=O)Nc3ccc4c(c3)OCO4)c2O[C@@H]1CN(C)Cc1ccc(Cl)c(Cl)c1	54
CNC[C@H]1Oc2ccc(NC(=O)Cn3cnnn3)cc2C(=O)N([C@@H](C)CO)C[C@@H]1C	7
Cc1cc(C(=O)Nc2cccc3c2O[C@H](CN(C)Cc2ccc(Oc4ccccc4)cc2)[C@@H](C)CN([C@H](C)CO)C3=O)n(C)n1	111*
CC(O)c1cncc2c(=O)n3c(cc12)-c1[nH]c2ccccc2c1CC3 (stereo unspecified)	49
C[C@@H]1CN([C@H](C)CO)C(=O)c2cc(NS(=O)(=O)c3ccccc3)ccc2O[C@@H]1CN(C)Cc1ccc(Oc2ccccc2)cc1	71
Cc1noc(C)c1NC(=O)Nc1cccc2c1O[C@@H](CN(C)Cc1ccc(Cl)c(Cl)c1)[C@@H](C)CN([C@H](C)CO)C2=O	6

Filtered by structure, the entries above with a Cl atom (7)
SMILES	NOMO-1 viab
C[C@@H]1CN([C@@H](C)CO)C(=O)c2cc(NC(=O)CCN3CCOCC3)ccc2O[C@H]1CN(C)Cc1ccc(Cl)c(Cl)c1	6
C[C@@H]1CN([C@@H](C)CO)C(=O)c2cccc(NS(=O)(=O)c3ccccc3)c2O[C@@H]1CN(C)Cc1ccc(Cl)c(Cl)c1	14
CCc1ccc2c(c1)=C(c1sc(Nc3cccc(Cl)c3C)nc1O)C(=O)N=2	49
CC(C)NC(=O)N(C)C[C@H]1Oc2c(NS(=O)(=O)c3ccc(Cl)cc3)cccc2C(=O)N([C@H](C)CO)C[C@@H]1C	12
C[C@@H]1CN([C@H](C)CO)C(=O)c2cccc(NS(=O)(=O)c3cn(C)cn3)c2O[C@@H]1CN(C)Cc1ccc(Cl)c(Cl)c1	14
C[C@@H]1CN([C@H](C)CO)C(=O)c2cccc(NC(=O)Nc3ccc4c(c3)OCO4)c2O[C@@H]1CN(C)Cc1ccc(Cl)c(Cl)c1	54
Cc1noc(C)c1NC(=O)Nc1cccc2c1O[C@@H](CN(C)Cc1ccc(Cl)c(Cl)c1)[C@@H](C)CN([C@H](C)CO)C2=O	6

The list continues:
SMILES	NOMO-1 viab
C[C@@H]1CCCCO[C@H](CN(C)S(=O)(=O)c2cn(C)cn2)[C@@H](C)CN([C@H](C)CO)C(=O)c2cc(NS(=O)(=O)c3ccccc3)ccc2O1	19
COc1ccc(NC(=O)Nc2ccc3c(c2)C(=O)N([C@H](C)CO)C[C@H](C)[C@@H](CN(C)C(=O)Cc2ccccc2)OCCCC[C@@H](C)O3)cc1	2
COc1ccc(NC(=O)Nc2cccc3c2O[C@@H](CN(C)CC2CCCCC2)[C@H](C)CN([C@@H](C)CO)C3=O)cc1	?
CC(C)NC(=O)Nc1ccc2c(c1)C(=O)N([C@H](C)CO)C[C@H](C)[C@H](CN(C)C(=O)c1ccccc1)OCCCC[C@@H](C)O2	-1
Cn1nnnc1SCC1=C(C(=O)O)N2C(=O)[C@@H](NC(=O)[C@H](O)c3ccccc3)[C@H]2SC1	7
CCNc1nc(NC(C)(C)C)nc(SCC(N)=O)n1	-19
Cc1noc(C)c1NC(=O)Nc1ccc2c(c1)C(=O)N([C@@H](C)CO)C[C@H](C)[C@@H](CN(C)C(=O)Nc1ccccc1)O2	-19
COCCNC(=O)CC1Sc2ccccc2NC1=O (stereo unspecified)	-3
C[C@@H]1CN([C@H](C)CO)C(=O)c2cccc(NS(C)(=O)=O)c2O[C@@H]1CN(C)S(=O)(=O)c1cccs1	7
C=C1C[C@@]23CCC4[C@](C)(C(=O)O)CCC[C@@]4(C)[C@]2(O)CCC1C3 (stereo partly specified)	22
C[C@H]1CN([C@@H](C)CO)C(=O)Cc2cc(N(C)C)ccc2O[C@@H]1CN(C)Cc1ccc(Cl)c(Cl)c1	46
Cc1nc2ccc(NC(=S)NCCCO)cc2nc1C	11
CC(C)NC(=O)N(C)C[C@H]1OCCCC[C@@H](C)Oc2ccc(NC(=O)CCCN(C)C)cc2C(=O)N([C@H](C)CO)C[C@@H]1C	19
COc1cc(NC(=O)C(C)Oc2ccc(Cl)cc2Cl)c(C(=O)O)cc1OC (stereo unspecified)	26
C[C@H]1CN([C@@H](C)CO)C(=O)c2cccc(NC(=O)c3ccc(-c4nccs4)cc3)c2O[C@H]1CN(C)S(C)(=O)=O	6
CCOc1ccccc1NC(=O)C1C(C(=O)O)C2C=CC1C21CC1 (stereo unspecified)	20
Cc1noc(C)c1NC(=O)Nc1cccc2c1O[C@@H](CN(C)S(=O)(=O)c1ccc(Cl)cc1)[C@@H](C)CN([C@@H](C)CO)C2=O	-10
COc1ccc(S(=O)(=O)N(C)C[C@H]2Oc3c(NC(=O)Nc4ccc5c(c4)OCO5)cccc3C(=O)N([C@@H](C)CO)C[C@@H]2C)cc1	13
CCOc1ccc2[nH]c(C)c(CCC(C)=O)c(=O)c2c1	-10
CN(CCC#N)CC(=O)Nc1ccccc1[N+](=O)[O-]	20
CC(C)=CCc1cc2c(cc1O)O[C@H]1c3ccc(O)c(O)c3OC[C@@H]21	105*
O=C(CSc1nnc(-c2ccccc2)n1-c1ccc(F)cc1)c1ccccc1	9
CC(C)NC(=O)Nc1ccc2c(c1)C(=O)N([C@H](C)CO)C[C@H](C)[C@@H](CN(C)Cc1ccc(Cl)c(Cl)c1)O2	-3
C[C@H]1CN([C@@H](C)CO)C(=O)c2cccc(NC(=O)c3cnccn3)c2O[C@@H]1CN(C)S(=O)(=O)c1cccs1	11
Cc1ccc(OCC(=O)Nc2cccc(C(=O)O)c2)c(Br)c1	19
CCOc1ccc(Cl)cc1S(=O)(=O)n1nnc2ccccc21	23
Cc1nnc(SCC(=O)Nc2ccc(N3CCOCC3)cc2)o1	21
C[C@@H]1CN([C@H](C)CO)C(=O)Cc2cc(NS(C)(=O)=O)ccc2O[C@@H]1CN(C)C(=O)Nc1cccc2ccccc12	6
Cc1noc(C)c1S(=O)(=O)Nc1ccc2c(c1)CC(=O)N([C@@H](C)CO)C[C@H](C)[C@H](CN(C)C(=O)Nc1cccc3ccccc13)O2	-13
Cc1ccc(S(=O)(=O)N(C)C[C@@H]2Oc3ccc(NC(=O)Cn4cnnn4)cc3C(=O)N([C@@H](C)CO)C[C@@H]2C)cc1	9
C[C@H](CO)N1C[C@H](C)[C@H](CN(C)Cc2ccccc2)Oc2ccc(NS(=O)(=O)c3cccs3)cc2CC1=O	4
C[C@H](CO)N1C[C@H](C)[C@H](CN(C)Cc2ccc(C(F)(F)F)cc2)Oc2ccc(NC(=O)Nc3cccc4ccccc34)cc2CC1=O	125*
CC(C)NC(=O)N(C)C[C@@H]1Oc2ccc(NC(=O)CCCCCC(=O)Nc3ccccc3N)cc2CC(=O)N([C@H](C)CO)C[C@@H]1C	9
Cc1noc(C)c1NC(=O)Nc1ccc2c(c1)C(=O)N([C@H](C)CO)C[C@H](C)[C@H](CN(C)Cc1ccc(C(=O)O)cc1)O2	23
O=C(Nc1cc(C(F)(F)F)cc(C(F)(F)F)c1)C(=S)NCCNc1cccc2ccccc12	65
C[C@@H]1CN([C@H](C)CO)C(=O)c2cc(NC(=O)CCCN(C)C)ccc2O[C@H]1CN(C)CC1CCCCC1	0
COc1cc(N)c(Cl)cc1C(=O)O	25
COc1cc(CO)ccc1OCC(=O)Nc1ccc(Br)cc1	3
C[C@H](CO)N1C[C@H](C)[C@@H](CN(C)Cc2ccncc2)Oc2ccc(NC(=O)Cc3cn(C)c4ccccc34)cc2C1=O	92*
CCOc1cc(S(=O)(=O)NCc2ccco2)ccc1Cl	5
CNC[C@@H]1Oc2ccc(NC(=O)Nc3ccc(OC)cc3)cc2CC(=O)N([C@H](C)CO)C[C@H]1C	1
CC(C)S(=O)(=O)c1csc(C(=O)OCC(=O)c2ccc(Cl)cc2)c1N	26
CC(=O)Nc1ccc(OCC(O)Cn2nc(C)c(Br)c2C)cc1 (stereo unspecified)	-1
COc1ccc(CCN2C(=O)c3oc4ccc(C)cc4c(=O)c3C2c2cccc([N+](=O)[O-])c2)cc1OC (stereo unspecified)	-16
CC(=O)Cn1c2ccccc2n2nc(CCC(=O)O)c(=O)nc12	-12
O=C(COc1ccc(S(=O)(=O)N2CCOCC2)cc1)Nc1ccc(Cl)c(C(F)(F)F)c1	129*
COc1ccc(NC(=O)Nc2ccc3c(c2)C(=O)N([C@H](C)CO)C[C@H](C)[C@@H](CN(C)S(=O)(=O)c2ccc(OC)cc2)OCCCC[C@@H](C)O3)cc1	31
C[C@H](CO)N1C[C@H](C)[C@H](CN(C)CC2CCCCC2)Oc2ccc(NC(=O)CCCCCC(=O)Nc3ccccc3N)cc2CC1=O	141*

By substructure: those above containing bromine (5)
SMILES	NOMO-1 viab
Cc1cc(C)c(OCC(=O)Nc2cccc(NC(=O)c3ccco3)c2)c(Br)c1	22
COc1c(C)cc(Br)cc1C(=O)NC(=S)Nc1sc2c(c1C(N)=O)CCCCC2	9
Cc1ccc(OCC(=O)Nc2cccc(C(=O)O)c2)c(Br)c1	19
COc1cc(CO)ccc1OCC(=O)Nc1ccc(Br)cc1	3
CC(=O)Nc1ccc(OCC(O)Cn2nc(C)c(Br)c2C)cc1 (stereo unspecified)	-1

Continuation.
SMILES	NOMO-1 viab
O=C1CNC(=S)N1CCOc1ccccc1Cl	31
C[C@@H]1CN([C@@H](C)CO)C(=O)c2cc(NC(=O)Nc3cccc4ccccc34)ccc2O[C@@H]1CN(C)CC1CCCCC1	118*
C[C@@H]1CN([C@H](C)CO)C(=O)c2cccc(NC(=O)c3cnccn3)c2O[C@H]1CN(C)Cc1ccc(C(F)(F)F)cc1	47
C[C@@H]1CN([C@H](C)CO)C(=O)c2cccc(NC(=O)c3nc4ccccc4s3)c2O[C@H]1CN(C)CC1CC1	54
COC(=O)Nc1sc2c(c1C(=O)NCc1ccco1)CCCC2	2
C[C@H]1CN([C@@H](C)CO)C(=O)c2cc(NC(=O)Nc3ccc4c(c3)OCO4)ccc2O[C@@H]1CN(C)C(=O)Nc1ccc(C(F)(F)F)cc1	1
COc1ccc2c(c1)c(=O)oc1c(C)c(OCC(=O)NCC3CCCO3)ccc12 (stereo unspecified)	36
COC(=O)c1ccccc1NC(=O)c1cccc(NC(=O)COc2cc(C)c(Cl)c(C)c2)c1C	102*
C[C@H]1CN([C@@H](C)CO)C(=O)Cc2cc(NC(=O)Nc3ccccc3)ccc2O[C@@H]1CN(C)CC1CC1	-1
CS(=O)(=O)N(CC(=O)Nc1ccc(Cl)c(C(F)(F)F)c1)c1cccc(C(F)(F)F)c1	?
Nc1nc(SCC(=O)Nc2ccc(F)cc2)n[nH]1	7
C[C@@H]1CN([C@@H](C)CO)C(=O)c2cc(NS(=O)(=O)c3ccccc3)ccc2O[C@@H]1CN(C)Cc1ccc2c(c1)OCO2	10
Cc1ccnc(NS(=O)(=O)c2ccc(NC(=O)c3ccc(Cl)cc3Cl)cc2)n1	20
C[C@H](CO)N1C[C@H](C)[C@H](CN(C)C(=O)Nc2ccc3c(c2)OCO3)Oc2c(NC(=O)c3nc4ccccc4s3)cccc2C1=O	19
C[C@H](CO)N1C[C@H](C)[C@H](CN(C)CC2CC2)Oc2c(NC(=O)Nc3ccc(C(F)(F)F)cc3)cccc2C1=O	44
COc1ccc(C=Nc2ccc(Br)cc2)cc1	11
C=C1CCC2C(C)(C)C(O)CCC2(C)C1CC/C(C)=C/C(=O)O (stereo unspecified)	8
CC1(C)Cc2c(sc3nc(SCc4ccccc4)nc(NCc4ccco4)c23)CO1	38
COC(=O)c1cccc(NC(=O)CSc2nc(=O)cc(N)n2-c2ccccc2)c1	3
C[C@H](CO)N1C[C@H](C)[C@@H](CN(C)Cc2ccccc2)Oc2ccc(NC(=O)Cn3cnnn3)cc2C1=O	11
C[C@H](CO)N1C[C@H](C)[C@@H](CN(C)C(=O)NC2CCCCC2)Oc2ccc(NC(=O)Nc3ccccc3)cc2C1=O	25

Screening data deposited in PubChem BioAssay by Broad Institute.
